High-throughput results deposited in PubChem by several laboratories.
Vif A3G = inhibitors of Vif binding to APOBEC3G peptide, primary screen, biochemical, TR-FRET, GST-Vif 1-94, biotin-A3G peptide, dose response retest (AID 1117319). TR-FRET GST-Vif / biotin-A3G peptide binding; higher % means a stronger effect; test concentration not given here; strong numbers were not always called active. one-dose inhibition, %; IC50 in µM for titrated hits. hit rate 0.57% among 260,000;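 active means above the screen mean plus three standard deviations and confirmed in dose response; inconclusive means results disagree or hit not tested in dose response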;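 further: Vif residues 1-94 fused to GST binding biotinylated APOBEC3G peptide 110-148; 0% = full assay without inhibitor and 100% = GST in place of GST-Vif; retest series ran down from 100 µM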
rRNA inh HTS = selective bacterial rRNA inhibition in E. coli; E. coli WT GFP vs humanized-ribosome RFP mutants, fluorescence, 24 h; active compounds read low; DMSO median 0, no signal -100; GFP signal change (wild-type ribosome), % (test concentration not listed); hit rate 1.6% among 350,000; AID 720706;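 active means significant combined selectivity score with lowered wild-type GFP, culture density cut under 30%, mutant RFP and density less affected; inactive means any of these conditions unmet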; further: one replicate is shown; some compounds called inactive have numbers as strong as hits
Calb FLC = affects C. albicans growth with fluconazole. C. albicans CaCi-2 (fluconazole-resistant clinical isolate) + fluconazole, Alamar Blue growth, 48 h. growth inhibition, % (test concentration not listed). hit rate 0.57% among 300,000. AID 1979;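 active means most replicates above 75%; inconclusive means exactly half above 75%; inactive means most below 75%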;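 further: all wells also contain fluconazole at 8 µg/ml as a sub-toxic cotreatment; 0% = median of DMSO wells and 100% = median of geldanamycin control wells; wells of about 8 µL received 7.5 nL stock; the first replicate is given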
A1 inh = inhibitors of the anti-apoptotic protein A1, read as caspase activation | AID 2462 | MEF A1-2A-BIM cells, Caspase-Glo 3/7 luminescence, 3 h; percent of clofoctol response, vehicle zero | hit rate 0.066% among 330,000 | caspase activation, % (test concentration not listed);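 active means over half of replicate activation scores above 10%, or exactly half above 10 with the replicate mean above 10; inconclusive means replicate mean below 10 yet half the replicates above 10; inactive means over half of replicates below 10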;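 further: wells of about 30 µL received 50 nL stock; many hits fall short of the cut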
RanGTP-Impb inh = inhibitors of RanGTP-importin-beta interaction, primary screen, biochemical, FRET, CFP-Ran, YFP-importin-beta, homogeneous; AID 2216; cell-free CFP-Ran/YFP-importin-beta FRET ratio; inhibition, % (concentration not given with the values); hit rate 1.1% among 300,000;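 active means most replicates above 15%; inconclusive means exactly half above 15%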;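 further: 0% = DMSO wells and 100% = Ran loaded with GDP instead of GTP; wells of about 40 µL received 100 nL stock; the first replicate is given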
T cruzi inh = T. cruzi replication inhibition; AID 1885; hit rate 1.4% among 300,000; inhibition, % (no concentration beside the values); T. cruzi beta-gal in NIH3T3, luminescence, 90 h;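 active means mean inhibition across valid replicates above about 55%, limit read from the data; inconclusive means mean below that limit but half or more replicates reach it; inactive means mean below it, under half of replicates reach it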;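 further: signal also drops with host cell toxicity which is not excluded here; 0% = plate median of DMSO wells and 100% = zero luminescence signal; higher percent means less beta-gal luminescence so fewer parasites; stock transfer was 50 nL into about 50 µL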
Beta cell apopt = blocks beta cell apoptosis | INS-1E cytokine-induced death, ATP luminescence, 48 h; percent of positive-control rescue, neutral wells zero | protection from apoptosis, % (test concentration not listed) | hit rate 0.8% among 300,000;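 active means all replicates at 75% or more, or half of them and the mean; inconclusive means half reach 75% but not the mean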;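 further: 0% = cytokine-treated negative control wells and 100% = positive control rescue; higher means more ATP so stronger rescue from cytokine killing; wells of about 40 µL received 100 nL stock; the first replicate is given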
MLL AF4-AF9 inh = inhibitors of human MLL-AF4/AF9 interaction. P42568. AlphaScreen, biotin-AF4 peptide binding to FLAG-AF9. inhibition, % at 10 µM. hit rate 0.47% among 350,000. AID 651704;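 active means every replicate reaching a set inhibition limit, whatever the replicate mean, cut at about 25% in these data; inconclusive means mean inhibition reaches that limit but some replicates miss it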;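 further: 0% = plate neutral control median and 100% = total signal loss; the record names both 10 and 1 µM as test concentration; the first replicate is given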
Target sequence (P42568 whole entry, looked up): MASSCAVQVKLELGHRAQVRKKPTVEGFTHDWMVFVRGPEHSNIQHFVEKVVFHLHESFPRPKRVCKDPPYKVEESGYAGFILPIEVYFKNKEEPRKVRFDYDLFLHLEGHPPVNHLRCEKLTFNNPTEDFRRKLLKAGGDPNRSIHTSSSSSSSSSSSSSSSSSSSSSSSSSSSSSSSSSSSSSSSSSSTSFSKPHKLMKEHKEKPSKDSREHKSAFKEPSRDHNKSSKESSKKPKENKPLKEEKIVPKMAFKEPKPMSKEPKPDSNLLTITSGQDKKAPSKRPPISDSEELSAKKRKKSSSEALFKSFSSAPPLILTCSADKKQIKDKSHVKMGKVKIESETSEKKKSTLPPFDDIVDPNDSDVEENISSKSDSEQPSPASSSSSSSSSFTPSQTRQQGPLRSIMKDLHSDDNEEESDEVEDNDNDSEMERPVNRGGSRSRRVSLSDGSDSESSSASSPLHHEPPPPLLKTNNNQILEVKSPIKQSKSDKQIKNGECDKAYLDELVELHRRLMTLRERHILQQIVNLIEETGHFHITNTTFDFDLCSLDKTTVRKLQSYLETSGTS
rRNA inh HTS OD600 = recorded beside rRNA inh HTS, whose call it bears; OD600 change, %; measured here: OD600 growth;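 optical density of the mix in the first replicate; 0 = DMSO median and -100 = no signal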
rRNA inh HTS RFP = further read-out of rRNA inh HTS, marked with its call; RFP signal change, %; measured here: RFP humanized mutant strains;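 first replicate; 0 = DMSO median and -100 = no signal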
An asterisk follows results filed as active; ? = inconclusive; / = not tested or not shown; & = joins results of further samples. Only part of the results is shown, so the mix of outcomes need not match the whole.

SMILES	Vif A3G	rRNA inh HTS	rRNA inh HTS OD600	rRNA inh HTS RFP	Calb FLC	A1 inh	RanGTP-Impb inh	T cruzi inh	Beta cell apopt	MLL AF4-AF9 inh
O=C(CSc1nc2[nH]ncc2c(=O)[nH]1)NCc1ccc(F)cc1	26%	3	11	-1.1	4	0.0	4.7	13	-5	1.5
CCOCCCN(C(=O)Cn1nnc(-c2ccc(OC)c(OC)c2)n1)C(C(=O)NCC1CCCO1)c1ccc(F)cc1 (centres undefined)	1%	-1	6	-1.1	-14	0.9	25	-2	-8	0.0
CC(=O)NCCNc1nc2c(-c3cccc(C)c3)nnn2c2ccccc12	/	1	-1	0.2	-15	0.0	5.4	-10	-4	-1.4
Cc1ccc(C(=O)NNC(=O)c2ccc3ncccc3c2)cc1	-1%	5	5	-1.6	8	/	0.0	3	/	-2.5
COc1ccc(C(=O)NC(=S)N2CCN(c3ccccc3OC)CC2)cc1	/	-6	-12	4.2	-10	-0.3	3.7	-41	-4	0.8
O=C(CN(c1cccc(Cl)c1)S(=O)(=O)c1ccccc1)NN=C1CCCC1	13%	4	5	-1.0	30	0.4	?	-13	1	1.5
CC(C)NC(=O)C(=O)N/N=C/c1ccco1	6%	15	3	0.4	11	-0.2	-3.7	-3	-4	2.1
CN(/N=C/c1ccncc1)c1cnc2ccccc2n1	16%	-19	-6	-1.9	15	0.0	-4.3	24	/	3.4
CCc1ccc2[nH]c(=O)c(CN(CCN(CC)CC)C(=O)Nc3ccccc3OC)cc2c1	2%	/	/	/	-4	-0.3	0.3	22	-4	/
C=CCn1c(SCC(=O)Nc2sccc2C(N)=O)nc2sc(CC)cc2c1=O	-6%	/	/	/	-6	2.1	1.3	3	7	/
CC(C)CCN1CCN(Cc2cc(F)ccc2-n2cccn2)CC1CCO (centres undefined)	8%	9	1	-0.7	-11	1.4	5.1	3	-3	-1.0
O=C(Cn1ccccc1=S)c1ccc(Cl)c(Cl)c1	/	-34*	-2.6*	-4.7*	2	1.0	2.3	-6	-4	1.1
c1ccc(-c2noc(-c3ccco3)n2)nc1	?	/	/	/	1	-6.8	-2.8	-15	10	/
COc1ccccc1NC(=O)c1c(C)cc(=O)oc1C	4%	11	11	-5.2	-4	0.3	2.9	10	4	-71
COC(=O)c1cc(=O)n(Cc2ccc(F)cc2)c(=NCc2ccc(F)cc2)s1	15%	2	7	-0.5	8	0.5	-2.4	-18	2	-1.9
COc1ccc(-n2c(Cc3cccn3C)nnc2SCC(=O)NCCc2ccccc2)cc1	3%&-2%	/	/	/	5	0.9	11	-15	1	/
O=C(CNC(=O)c1ccc(Br)o1)NCC(=O)OCc1ccccc1	10%	7	5	2.6	1	-0.3	-0.1	-7	0	-1.7
Cc1cc(SCC#N)n2nc(C)c(-c3ccccc3)c2n1	21%	3	-8	14	-4	1.5	2.6	-13	-5	/
C[C@H]1CN([C@@H](C)CO)C(=O)c2cccc(NC(=O)Nc3ccc(C(F)(F)F)cc3)c2O[C@H]1CN(C)C	/	3&-1	-7&-7	1.6&2.1	/	-1.0	/	/	8	2.3&2.5
Cc1nnc(SCC(=O)Nc2nccs2)n1C(C)C	-3%	7	10	4.8	4	1.0	0.6	3	/	-1.5
CCSc1nnc(SCC(=O)Nc2cc(C)on2)s1	/	1	3	-4.7	/	0.2	/	/	-3	0.8
O=c1ccc(S(=O)(=O)N2CCCC2)cn1Cc1ccc(Cl)cc1Cl	4%	-9	-21	-1.3	/	-0.7	/	/	2	-3.7
COc1ccc(S(=O)(=O)N2CCN(CC(=O)N3CCOCC3)CC2)cc1OC	/	9	11	0.6	/	1.5	/	/	-2	-4.9
O=C(COc1ccc2c(c1)OCO2)Nc1ccc(Cl)cn1	/	5	5	0.9	35	-2.9	2.5	3	-4	-3.6
CC1(C)Cc2c(sc3nc(-c4ccccc4Cl)n(N)c(=O)c23)CO1	-5%	-8	-8	0.3	5	1.1	5.0	1	4	/
Cc1nn(C)c(C)c1S(=O)(=O)N1CCCC(C(=O)NC2CCCCC2)C1 (centres undefined)	8%	/	/	/	-2	1.2	-0.8	-9	0	/
COc1ccc(CC(=O)N2CCNC2=O)cc1	-4%	/	/	/	9	1.3	-5.2	-3	-3	/
Cc1cccc(-n2ccc(=O)c(C(=O)Nc3ccc(S(=O)(=O)Nc4nccc(C)n4)cc3)n2)c1	-13%	15	9	8.8	-18	1.2	-3.1	10	-6	1.0
Cc1cccc(NC(=O)Cn2nnc3ccccc32)c1	/	1	3	-1.7	-16	-0.3	1.2	2	-4	-3.3
O=C(O)c1cc2c(cn1)[nH]c1ccccc12	-2%	5	1	11	11	-0.9	?	-6	1	-4.4
CCN(CC(=O)Nc1ccccc1C(F)(F)F)C(=O)CSCC(=O)Nc1cc(C)on1	5%	12	12	3.6	3	-0.2	7.5	6	-6	-1.2
CC[C@H]1OC(=O)[C@H](C)[C@@H](O[C@H]2C[C@@](C)(OC)[C@@H](O)[C@H](C)O2)[C@H](C)[C@@H](O[C@@H]2O[C@H](C)C[C@H](N(C)C)[C@H]2O)[C@](C)(O)C[C@@H](C)CN(C)[C@H](C)[C@@H](O)[C@]1(C)O	/	/	/	/	/	0.1	?	2	1	-2.4
COc1ccc(C2=CC(=O)CC(C)(C)C2)cc1OC	/	-4	-4	-7.5	/	-0.2	/	/	-1	-6.0
CC(=O)c1ccc(N2CCN(C(=O)c3noc4c3CSc3ccccc3-4)CC2)cc1	-7%	-6	0	13	4	0.6	-1.3	-15	4	-13
O=C(OCc1nc2ccsc2c(=O)[nH]1)c1ccc(Cl)nc1	-4%	10	9	3.1	-5	0.3	0.5	-6	/	-1.4
O=C(Nc1ccc2nc3n(c(=O)c2c1)CCCCC3)C(=O)N1CCN(c2ccc(F)cc2)CC1	/	1	8	-1.8	-6	0.1	-5.5	2	-4	-0.6
O=C(c1ccc(F)cc1)N1CCCCC(Sc2nnc3ccccn23)C1=O (centres undefined)	18%	2	3	-8.0	?	0.6	6.8	-10	-3	1.8
CCn1c(SCc2nc3ccccc3c(=O)[nH]2)nc2ccccc2c1=O	-6%&16%	/	/	/	3	-0.4	-0.3	6	4	/
C[C@H](NC(=O)N1CCn2c1nc1ccccc12)C(=O)NCCc1ccccc1	-1%	5	3	-0.1	1	0.7	-0.7	-8	0	-0.6
CCCCCCCCCc1nc(N)n[nH]1	12%	/	/	/	-16	0.7	-0.3	12	1	/
O=c1cc(CSc2ccc(Cl)cc2)[nH]c2[nH]n(-c3ccccc3)c(=O)c12	?	0	5	7.1	15	1.2	-4.5	1	0	?
Cc1nc2nc(SCC(N)=O)[nH]c2cc1Br	5%	/	/	/	-8	0.4	2.0	-9	-8	/
CCc1nnc(NC(=O)CCNC(=O)c2ccco2)s1	/	8	14	-1.1	-3	0.0	1.8	-2	-2	-7.1
CC(=O)N1CCN(Cc2nc3cc(NC(=O)c4ccc(Cl)cc4)ccc3n2C)CC1	-2%	-4	-1	-5.2	/	0.1	/	/	0	-3.8
CCC(C)(C(=O)NC1CCCCC1)N(C(=O)c1ccccn1)c1ccc(C)cc1 (centres undefined)	3%	/	/	/	7	-0.3	2.4	-3	-10	/
O=C(c1ccc(CSc2nc3ccncc3[nH]2)cc1)N1CCCCC1	-13%	-2	-1	-1.1	-7	-0.2	6.6	-10	4	-25
CC(C)CCNC(=S)Nc1ccc2nc3n(c(=O)c2c1)CCCCC3	-6%	-12	-11	-2.6	-6	0.6	-0.6	6	3	2.3
O=C(Nc1ccc(N2CCN(C(=O)c3ccccc3)CC2)c(Cl)c1)c1cccnc1	27%	/	/	/	-2	0.6	-3.3	20	-2	/
OC(COc1ccc(OCc2ccccc2)cc1)CN1CCOCC1 (centres undefined)	4%	8	-8	3.1	-12	-0.9	-0.5	1	2	/
CSc1nc(C)c(C(=O)Nc2ccccc2)c(C)c1C#N	-1%	-21*	-15*	0.4*	-12	1.8	-3.4	-10	3	-0.1
C=CC[C@H](CC(=O)NCCO)C(=O)NC[C@@H](OC(=O)[C@@H](CC=C)CC(=O)OC(C)(C)C)c1ccccc1	/	12	-8	18	/	0.4	/	/	1	-6.7
COCCNC(=O)c1ccccc1NC(=O)Nc1ccccc1	/	-13	-24	-0.1	-16	-0.2	2.2	-13	-3	1.3
CCOc1cc2[nH]c(=S)n(CCN3CCCCC3CC)c(=O)c2cc1OCC (centres undefined)	-2%	/	/	/	-7	0.1	0.1	-3	-4	/
COc1ccc(N2C(=O)CC(NNC(=O)c3cc(C)oc3C)C2=O)cc1 (centres undefined)	11%	18	11	-2.6	-6	0.8	2.0	-6	1	1.0
CCOc1nc2c(c(=O)n(C)c(=O)n2C)n1Cc1ccccc1Cl	-4%	/	/	/	22	-0.3	4.5	-9	55	/
CCC(C)[C@H]1CNCCN1CCC12CC3CC(CC(C3)C1)C2 (some centres undefined)	/	-14	-20	4.9	/	0.7	/	/	8	6.1
O=C(NCCCn1ccnc1)c1cc(-c2cccnc2)nc2ccc(Br)cc12	-33%	12	8	-0.2	9	-0.2	-1.2	14	-2	1.2
O=C(NCCCN1CCOCC1)/C(=C/c1ccco1)NC(=O)c1ccccc1	-1%	4	9	-0.7	-2	0.7	-1.2	-18	-9	2.3
Cc1ccc(OCc2ccc(C(=O)NN)o2)c([N+](=O)[O-])c1	4%	1	-2	-3.1	4	-0.4	0.3	-7	3	-3.9
Cc1occc1C(=O)N1N=C(C2CC2)CC1(O)C(F)(F)F (centres undefined)	-2%	/	/	/	-14	0.6	-1.7	2	-10	/
(more compounds)
SMILES	Vif A3G	rRNA inh HTS	rRNA inh HTS OD600	rRNA inh HTS RFP	Calb FLC	A1 inh	RanGTP-Impb inh	T cruzi inh	Beta cell apopt	MLL AF4-AF9 inh
COc1ccc(CCNC(=O)c2ccc(CS(=O)Cc3ccc(Cl)cc3)o2)cc1OC (centres undefined)	-7%	-16	-17	-2.1	30	0.4	-1.2	8	-9	1.4
COc1ccc(C2NCCC3(O)CCCCC23)c(OC)c1OC (centres undefined)	26%	/	/	/	-9	-0.1	-2.7	-5	1	-1.7
CC(C)OCCCn1c(SCC(=O)Nc2ccccc2C(F)(F)F)nc2nccnc2c1=O	-2%	-1	12	-0.9	-10	-1.6	3.9	3	-5	-0.3
Cc1cccc(NC(=O)c2ccc3[nH]c(=O)c(=O)[nH]c3c2)n1	0%	2	-5	0.4	-6	-0.1	-1.1	3	0	1.2
Cc1ccc(SCC(=O)NCCCN2CCOCC2)cc1	2%	/	/	/	37	1.3	2.9	-2	/	/
COc1cc(CN2CCNC(=O)C2CC(=O)N(C)CCN2CCOCC2)cc(OC)c1 (centres undefined)	1%	5	13	0.3	16	/	-1.6	-4	/	3.7
